rRNA inh HTS – selective bacterial rRNA inhibition in E. coli; actives 1.6% (n = 350,000); E. coli WT GFP vs humanized-ribosome RFP mutants, fluorescence, 24 h; hits give low values; DMSO median 0, no signal -100; AID 720706; GFP signal change (wild-type ribosome), % (concentration not given with the values);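 active = significant combined selectivity score with lowered wild-type GFP, culture density cut under 30%, mutant RFP and density less affected; inactive = any of these conditions unmet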; note: one replicate is shown; some compounds called inactive have numbers as strong as hits
rRNA inh HTS OD600 – also measured in rRNA inh HTS; calls as there; OD600 change, %; measured here: OD600 growth;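 optical density of the mix in the first replicate; 0 = DMSO median and -100 = no signal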
rRNA inh HTS RFP – second read-out of rRNA inh HTS, no call of its own (marks repeat the call); RFP signal change, %; measured here: RFP humanized mutant strains;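 first replicate; 0 = DMSO median and -100 = no signal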
* = called active by the depositor; & = joins results of further samples. Some of the compounds tested. The share of hits here may be higher or lower than overall.

compound | rRNA inh HTS | rRNA inh HTS OD600 | rRNA inh HTS RFP
Cc1ccccc1S(=O)(=O)N1CC(=O)N2[C@H](CO)[C@H](c3ccc(C#CCN(C)C)cc3)[C@@H]2C1 | 3.5 | 6.7 | 1.7
Cc1cccc(C)c1NC(=O)C1(C)CSCC(=O)N1CCCn1ccnc1 (stereo unspecified) | 11.3 | 7.7 | 2.0
O=C(C[C@@H]1C[C@H]2c3cc(NC(=O)Nc4ccccc4F)ccc3O[C@H]2[C@@H](CO)O1)NCCc1ccccc1 | -2.3 | 4.3 | -4.8
COc1cccc(-c2cnc3c(c2)C(=O)N([C@@H](C)CO)C[C@H](C)[C@@H](CN(C)Cc2cccnc2)O3)c1 | -2.3 | 5.0 | -0.7
O=C(C[C@@H]1C[C@@H]2c3cc(NS(=O)(=O)c4ccccc4)ccc3O[C@@H]2[C@@H](CO)O1)NC1CCCCC1 | 0.5 | -11.9 | 3.6
CC1(C(=O)NS(=O)(=O)c2ccc(Cl)cc2)CCN1C(=O)CC1CCCC1 (stereo unspecified) | 20.1 | 9.8 | 0.0
COc1ccc(NC(=O)N(C)C[C@H]2OCCCC[C@@H](C)Oc3ccc(NS(=O)(=O)c4cccs4)cc3C(=O)N([C@@H](C)CO)C[C@H]2C)cc1 | 1.6 | -6.8 | 0.1
CCC(=O)N1C[C@H](C)[C@@H](OC)CN(C)C(=O)c2ccc(NC(=O)c3cc(C)on3)cc2OC[C@@H]1C | 2.3 | 0.0 | -6.1
COc1ccc(CN(C)C[C@H]2Oc3c(NC(=O)Nc4ccc(OC)cc4)cccc3C(=O)N([C@H](C)CO)C[C@@H]2C)cc1 | -4.2 | 0.1 | 4.3
C[C@H](CO)N1C[C@H](C)[C@H](CN(C)Cc2ccc(-c3ccccc3)cc2)Oc2ccc(NS(=O)(=O)c3cccs3)cc2C1=O | 0.0 | -27.3 | 13.6
CCNC(=O)C[C@@H]1CC[C@@H]2[C@@H](COc3ccc(NC(C)=O)cc3C(=O)N2C)O1 | 4.2 | -4.1 | -2.5
Cc1noc(C)c1S(=O)(=O)N(C)C[C@H]1Oc2ccc(NS(=O)(=O)c3ccccc3)cc2C(=O)N([C@@H](C)CO)C[C@H]1C | 0.7 | -0.9 | 0.0
C[C@H]1CN([C@@H](C)CO)S(=O)(=O)c2ccc(/C=C/c3ccccc3)cc2O[C@@H]1CN(C)C(=O)c1ccccc1 | -3.8 | -1.9 | 1.0
COc1ccc(NC(=O)N(C)C[C@@H]2OCCCC[C@@H](C)Oc3ccc(NC(=O)Nc4c(C)noc4C)cc3C(=O)N([C@@H](C)CO)C[C@H]2C)cc1 | -0.2 | -4.8 | 0.1
COc1ccc2c3c(n(C)c2c1)[C@@H](CO)N(C(=O)C1CC1)CC31CN(C(=O)CN(C)C)C1 | 3.1 | 10.8 | -1.6

Part of the list above in order of formula weight, highest first:
compound | rRNA inh HTS | rRNA inh HTS OD600 | rRNA inh HTS RFP
Cc1ccccc1S(=O)(=O)N1CC(=O)N2[C@H](CO)[C@H](c3ccc(C#CCN(C)C)cc3)[C@@H]2C1 | 3.5 | 6.7 | 1.7
CCNC(=O)C[C@@H]1CC[C@@H]2[C@@H](COc3ccc(NC(C)=O)cc3C(=O)N2C)O1 | 4.2 | -4.1 | -2.5
Cc1cccc(C)c1NC(=O)C1(C)CSCC(=O)N1CCCn1ccnc1 (stereo unspecified) | 11.3 | 7.7 | 2.0

Further compounds.
compound | rRNA inh HTS | rRNA inh HTS OD600 | rRNA inh HTS RFP
O=C(c1ccc(F)cc1)N1CC(=O)N2[C@H](C1)[C@@H](c1ccc(-c3cccnc3)cc1)[C@@H]2CO | 4.0 | 10.2 | 0.3
C[C@@H]1CN([C@H](C)CO)C(=O)c2cc(NC(=O)Nc3ccccc3)ccc2O[C@@H](C)CCCCO[C@@H]1CN(C)Cc1ccccc1 | 1.8 | -25.4 | 10.8
CN(C)CC#Cc1ccc([C@@H]2[C@H](CO)N3C(=O)CN(C(=O)c4cccnc4)C[C@@H]23)cc1 | 0.3 | 6.7 | 3.8
C[C@@H]1CN([C@@H](C)CO)C(=O)c2c(c3ccccc3n2C)-c2ccccc2CO[C@H]1CN(C)C(=O)c1ccccc1 | 4.7 | -17.2 | 2.8
COc1ccc(NC(=O)Nc2ccc3c(c2)C(=O)N([C@H](C)CO)C[C@H](C)[C@H](CN(C)Cc2ccccc2)OCCCC[C@H](C)O3)cc1 | -24.2 | -49.2 | 25.9
COc1cccc(S(=O)(=O)Nc2ccc3c(c2)OC[C@@H](C)N(Cc2ccccc2F)C[C@@H](C)[C@H](OC)CN(C)C3=O)c1 | -1.9 | -8.4 | 2.1
CCCNC(=O)[C@H]1[C@H](CO)[C@H]2Cn3c(ccc(-c4ccccc4OC)c3=O)[C@H]2N1CC | 0.6 | 2.5 | -0.2
C[C@@H]1CN([C@H](C)CO)C(=O)c2cc(Br)cnc2O[C@H]1CN(C)C(=O)Nc1ccc(F)cc1 | 1.2 | 14.3 | -6.1
COc1ccc(S(=O)(=O)N(C)C[C@@H]2Oc3ccc(NC(=O)c4ccncc4)cc3C(=O)N([C@@H](C)CO)C[C@@H]2C)cc1 | 1.2 | -2.0 | 1.9
C[C@H]1CN([C@@H](C)CO)S(=O)(=O)c2ccc(Br)cc2O[C@@H]1CN(C)C | 1.5 | 4.7 | -4.4
Cc1noc(C)c1NC(=O)N(C)C[C@@H]1OCCCC[C@H](C)Oc2ccc(NC(=O)c3ccccc3)cc2C(=O)N([C@H](C)CO)C[C@H]1C | -5.3 | -0.7 | -2.2
O=C(O)[C@@H]1[C@@H](CO)[C@@H]2Cn3c(ccc(-c4ccc(F)cc4)c3=O)[C@@H]2N1CCc1ccccc1 | -1.4 | -3.7 | -1.5
COc1cccc(CNC(=O)[C@H]2CCCN2C(=O)[C@H]2CCCN2S(=O)(=O)c2cccc(C)c2)c1 | 1.5 | -7.1 | 3.6
O=S(=O)(c1ccccc1)N1CC2CC(Br)C(Br)CC21 (stereo unspecified) | -3.9 | -33.0 | -13.7
C[C@H]1CN([C@@H](C)CO)C(=O)c2cc(NC(=O)CCCN(C)C)ccc2O[C@H]1CN(C)C(=O)NC1CCCCC1 | 2.7 | 2.0 | 0.6
O=C(c1[nH]c(C(F)(F)F)nc1-c1ccccc1)N1CCN(c2ccccn2)CC1 | 6.3 | 0.7 | -5.4
O=C(C1CCOCC1)N1CC(=O)N2[C@H](CO)[C@@H](c3ccc(C#CC4CC4)cc3)[C@H]2C1 | 1.2 | 9.6 | -5.3
Cc1ccc(S(=O)(=O)Nc2ccc3c(c2)C(=O)N([C@H](C)CO)C[C@@H](C)[C@@H](CN(C)C)OCCCC[C@H](C)O3)cc1 | -0.6 | -0.1 | 1.2
O=C1C(Sc2ccccc2)=C[C@@]2(O)CC[C@@H](O)[C@]1(Sc1ccccc1)[C@H]2O | -23.2* | 7.0* | 4.3*
O=C(Cc1ccccn1)NCC[C@@H]1CC[C@@H](NC(=O)Nc2ccc(C(F)(F)F)cc2)[C@@H](CO)O1 | -1.4 | -8.6 | 3.7
C[C@H](CO)N1C[C@H](C)[C@H](CN(C)Cc2cncnc2)Oc2cc(C#CC3CCCC3)ccc2S1(=O)=O | -1.8 | -23.7 | 8.4
COc1ccc2c3c([nH]c2c1)[C@@H](CO)N(C(=O)CN(C)C)CC31CN(CC2CCOCC2)C1 | 6.2 | 16.1 | 0.3
O=C(CCNC(=O)c1ccc(Cl)cc1)Nc1cc(C(F)(F)F)ccc1N1CCOCC1 | -27.3 | -61.3 | -8.3
CCCNC(=O)C[C@@H]1CC[C@H]2[C@@H](COc3ccc(NS(=O)(=O)c4ccccc4C)cc3C(=O)N2C)O1 | -1.7 | 5.0 | -0.1
Cc1noc(C)c1NC(=O)N(C)C[C@H]1Oc2ncc(C#CC(C)C)cc2C(=O)N([C@@H](C)CO)C[C@H]1C | 3.4 | 2.8 | 0.0
COCCNc1oc(/C=C/c2cccc(OC)c2)nc1S(=O)(=O)c1ccccc1 | -4.0 | -2.4 | 6.6
COc1ccc(NC(=O)Nc2ccc3c(c2)C(=O)N([C@H](C)CO)C[C@H](C)[C@H](CN(C)S(=O)(=O)c2ccc(C)cc2)OCCCC[C@@H](C)O3)cc1 | -1.2 | 2.7 | -0.8
COCC(=O)Nc1ccc2c(c1)C(=O)N(C)[C@@H]1CC[C@H](CC(=O)O)O[C@H]1CO2 | 4.8 | 6.4 | 0.0
CC=Cc1ccc2n(c1=O)C[C@@H]1[C@@H](CO)[C@H](C(=O)NCc3ccccn3)N(CC3CC3)[C@H]21 (mixture of isomers) | 1.2 | 7.8 | 2.2
C[C@@H]1CN([C@H](C)CO)C(=O)c2cc(C3=CCCC3)cnc2O[C@H]1CN(C)C(=O)c1ccc2c(c1)OCO2 | 1.8 | -5.4 | -1.6
CCOC(=O)C1(C)CCCN1C(=O)c1ccc2ccccc2c1 (stereo unspecified) | 0.2 | 1.9 | -0.9
C[C@H]1CN([C@@H](C)CO)C(=O)c2cc(-c3ccccc3)cnc2O[C@H]1CN(C)C(=O)Nc1ccccc1F | -1.0 | 3.8 | -1.0
CO[C@H]1CN(C)C(=O)c2cc(NC(C)=O)ccc2OC[C@H](C)N(Cc2ccc(F)cc2)C[C@@H]1C | -0.8 | -4.5 | 0.0
CC(O)C(NS(=O)(=O)c1ccc(Cl)cc1)C(=O)OCCOc1ccc(F)cc1 (stereo unspecified) | -7.2 | -30.5 | -5.3
O=C(NCc1ccc(F)cc1)[C@@H]1[C@@H](CO)[C@@H]2Cn3c(cccc3=O)[C@@H]2N1C(=O)C1CC1 | 1.3 | 3.5 | -3.3
O=C(C[C@@H]1C[C@H]2c3cc(NS(=O)(=O)c4ccccc4)ccc3O[C@H]2[C@@H](CO)O1)N1CCOCC1 | -1.6 | -1.3 | -0.5
O=C(Nc1ccccc1Cl)c1cc(C2CCCN(C(=O)OCCF)C2)on1 (stereo unspecified) | -22.9 | -57.5 | -5.0
CCN(CC)c1ncnc2c1ncn2[C@H]1CN(Cc2ccc(Cl)cc2)C[C@@H](CO)O1 | -25.1 | -28.3 | -4.9
C[C@@H]1CN([C@H](C)CO)C(=O)c2cc(NC(=O)C3CC3)ccc2O[C@H]1CN(C)Cc1ccc(Oc2ccccc2)cc1 | -6.5 | -54.1 | 26.4
COC(=O)C1=CN(c2c(C)cc(C)cc2C)C(N)=C(C#N)C1c1ccccc1 (stereo unspecified) | 2.6 | -17.4 | 3.4
CC=C1OC(n2cnc3c(N)ncnc32)C(O)C1O (stereo unspecified) | 10.0 | 21.9 | -0.9
CCC(=O)N1CC2(C1)CN(Cc1ccc3c(c1)OCO3)[C@H](CO)c1c2c2ccc(OC)cc2n1C | -1.6 | 7.2 | 2.6
O=C(C[C@H]1CC[C@@H](NC(=O)Nc2cc(F)ccc2F)[C@H](CO)O1)NCc1ccccn1 | 3.9 | 2.1 | -3.2
Cc1noc(C)c1NC(=O)Nc1cccc2c1O[C@@H](CN(C)Cc1ccc(C(F)(F)F)cc1)[C@@H](C)CN([C@H](C)CO)C2=O | 3.5 | 5.0 | 0.2
O=S(=O)(c1cccc(F)c1)N1[C@@H]2CNC[C@H]1C2c1ccc(-c2cccc(F)c2)cc1 (stereo partly specified) | -55.5&-5.5 | -80.9&-9.7 | -14.9&3.6
COc1ccc(NC(=O)Nc2ccc3c(c2)CC(=O)N([C@H](C)CO)C[C@@H](C)[C@H](CN(C)Cc2ccc(-c4ccccc4)cc2)O3)cc1 | 1.6 | -0.6 | -2.7
Cc1ccc(S(=O)(=O)N[C@@H]2CC[C@@H](CCNC(=O)C3CCOCC3)O[C@H]2CO)cc1 | -0.1 | -3.1 | 1.7
CCCC#Cc1cnc2c(c1)C(=O)N([C@@H](C)CO)C[C@H](C)[C@@H](CN(C)Cc1ccncc1)O2 | 0.1 | 13.7 | 6.7
COc1ccc(S(=O)(=O)Nc2ccc3c(c2)C(=O)N([C@@H](C)CO)C[C@@H](C)[C@@H](CN(C)C(=O)Nc2c(C)noc2C)O3)cc1 | 2.6 | 5.3 | 1.1
Cn1c(=O)c2cc(NC(=O)Cc3cccnc3)ccc2n1-c1ccc2ccccc2c1 | -1.3 | -21.0 | 5.9
C[C@H]1CN([C@@H](C)CO)S(=O)(=O)c2ccc(C3=CCCC3)cc2O[C@@H]1CN(C)S(=O)(=O)c1cn(C)cn1 | 0.0 | -11.5 | 2.9
CN(C)C(=O)[C@@H]1[C@@H](CO)[C@@H]2Cn3c(ccc(-c4cccc(F)c4)c3=O)[C@@H]2N1C(=O)c1cnccn1 | 3.0 | 5.2 | -0.2
CC(C)NC(=O)Nc1cccc2c1O[C@@H](CN(C)S(C)(=O)=O)[C@H](C)CN(C)C2=O | -0.4 | -0.4 | -1.6
CC(C)NC(=O)Nc1cccc2c1O[C@H](CN(C)S(=O)(=O)c1ccc(Cl)cc1)[C@@H](C)CN([C@@H](C)CO)C2=O | 3.0 | 18.8 | -1.0
O=C(Cc1ccncc1)NCC[C@@H]1CC[C@H](NC(=O)C2CCCC2)[C@H](CO)O1 | 2.1 | 12.7 | -2.5
CC(=O)Nc1ccc(N=Nc2ccccc2)cc1[N+](=O)[O-] | -15.0 | -5.5 | -5.8
C[C@H](CO)N1C[C@H](C)[C@@H](CN(C)C(=O)Nc2cccc3ccccc23)Oc2c(NC(=O)CCCCCC(=O)Nc3ccccc3N)cccc2C1=O | -0.5 | -0.7 | 3.2
O=C(Nc1ccc(F)cc1)N1CC(=O)N2[C@@H](CO)[C@@H](c3ccc(C4=CCCC4)cc3)[C@@H]2C1 | -0.2 | -4.4 | 1.6
CC(C)CC#Cc1ccc2c(c1)O[C@@H](CN(C)Cc1cccnc1)[C@@H](C)CN([C@H](C)CO)S2(=O)=O | -10.4 | -23.1 | 26.2

Compounds from the list above containing a COOH group:
compound | rRNA inh HTS | rRNA inh HTS OD600 | rRNA inh HTS RFP
O=C(O)[C@@H]1[C@@H](CO)[C@@H]2Cn3c(ccc(-c4ccc(F)cc4)c3=O)[C@@H]2N1CCc1ccccc1 | -1.4 | -3.7 | -1.5
COCC(=O)Nc1ccc2c(c1)C(=O)N(C)[C@@H]1CC[C@H](CC(=O)O)O[C@H]1CO2 | 4.8 | 6.4 | 0.0

Bioassay records from PubChem.
